From PubChem BioAssay
ClpP mod: qHTS Assay for Activators of ClpP | ATP-dependent Clp protease proteolytic subunit (Bacillus subtilis (strain 168)), P80244 | purified B. subtilis ClpP, FRET peptide cleavage, 20 min | Potency, µM (top dose mostly 57.5 µM), without a hit: top-dose activity change, negative = active | hit rate 1.9% among 340,000 | AID 651965, 2013; active = well fitted falling curve with a large enough effect; inconclusive = small, poorly fitted or top-dose-only effect; inactive = no such curve, though single readings can be large or run the other way; also: potency is read from the fitted curve at half-maximal effect; the source files actives as falling curves though it sought activators and does not explain the sign; nearly all actives have a fitted effect of over 65% in size; many hits overshoot -100%
Target sequence (P80244 whole entry, looked up): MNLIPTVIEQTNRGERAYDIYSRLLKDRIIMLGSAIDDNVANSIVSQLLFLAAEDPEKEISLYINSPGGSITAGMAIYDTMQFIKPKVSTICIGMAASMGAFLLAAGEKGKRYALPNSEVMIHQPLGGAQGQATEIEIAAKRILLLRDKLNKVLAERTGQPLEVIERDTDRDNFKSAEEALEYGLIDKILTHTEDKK
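Purified B. subtilis ClpP, 10 microg/mL final in Tris/HCl pH8 with KCl, BSA, glycerol and Tween-20, cleaved an Abz/nitrotyrosine-quenched decapeptide. Fluorescence (ex 320, em 430) was read at 0 and 20 min at room temperature. Delta was normalized to 5.8 microM ADEP and DMSO/no-enzyme controls.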
D2 potentiator: human D2 receptor positive allosteric modulation. P14416. DiscoveRx D2 beta-arrestin cells, luminescence, 90 min; 100% = 57 uM dopamine signal. potentiation, % (test concentration not listed). hit rate 0.23% among 360,000. AID 624464; active = potentiation of 50% or more; inconclusive = 30% to 50%; inactive = 30% or less;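 also: compound concentration not given in the record; tested on top of an EC20 dose of dopamine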
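D2 cells co-treated with compound plus 50 nM dopamine (EC20) for 90 min at 37 deg C to detect potentiation. Beta-arrestin recruitment was read as enzyme-fragment luminescence after 1 h at ambient temperature. Full response was set by 57 uM dopamine.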
gsp antag: antagonizes gsp, the McCune-Albright syndrome mutation. gsp-mutant cells, cAMP HTRF, 30 min; control for the full effect not named in the record. Potency, µM (titrated, usually from 76.9 µM), for inactives: at the highest dose activity change, negative = inhibition, actives largely listed as inhibitors. hit rate 0.4% among 340,000. AID 624288; active = falling curve of any shape with a large fitted effect; inconclusive = falling curve, mostly with a smaller effect; inactive = flat or rising curve; cell line not stated here;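 also: intracellular cAMP measured with PDE inhibitor Ro 20-1724 present during compound exposure; potency is read from the fitted curve at half-maximal effect; % is scaled to controls: 0 for no effect and ±100 for the full control effect; nearly all actives have a fitted effect of over 65% in size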
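Measurement of cellular cAMP by homogeneous time-resolved fluorescence following a 30 min compound exposure at 37C. The PDE inhibitor […] was present throughout; the assay buffer was DPBS with 0.05% BSA and 0.005% Tween 20.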
Menin-MLL FL inh: displaces fluorescein MLL peptide from human menin | 290,000 tested, under 10 active | FP activity change, % at 61.4 µM | Fluorescence polarization, fluorescein-MLL peptide displacement from menin; inconclusive = falling polarisation curve, or a change in total fluorescence; inactive = total fluorescence flat and polarisation flat or rising; no compound was filed as active; the % refers to the polarisation; negative = inhibition;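 also: % of control where 0% means no effect; inhibitors lower the polarisation; unlabelled MLL peptide was the positive control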
TRPV1 PAM: potentiators of human vanilloid receptor 1 (TRPV1); Q8NER1; TRPV1-expressing cells, Fluo-8 calcium influx, capsaicin EC20 potentiation; host cell line not named in the record; control for the full effect not named in the record; potentiation, % at 8.33 µM; hit rate 0.02% among 320,000; active means potentiation above 80%; inconclusive means 30% to 80%; inactive means below 30%; also: 0% is about no effect
Target sequence (Q8NER1 whole entry, looked up): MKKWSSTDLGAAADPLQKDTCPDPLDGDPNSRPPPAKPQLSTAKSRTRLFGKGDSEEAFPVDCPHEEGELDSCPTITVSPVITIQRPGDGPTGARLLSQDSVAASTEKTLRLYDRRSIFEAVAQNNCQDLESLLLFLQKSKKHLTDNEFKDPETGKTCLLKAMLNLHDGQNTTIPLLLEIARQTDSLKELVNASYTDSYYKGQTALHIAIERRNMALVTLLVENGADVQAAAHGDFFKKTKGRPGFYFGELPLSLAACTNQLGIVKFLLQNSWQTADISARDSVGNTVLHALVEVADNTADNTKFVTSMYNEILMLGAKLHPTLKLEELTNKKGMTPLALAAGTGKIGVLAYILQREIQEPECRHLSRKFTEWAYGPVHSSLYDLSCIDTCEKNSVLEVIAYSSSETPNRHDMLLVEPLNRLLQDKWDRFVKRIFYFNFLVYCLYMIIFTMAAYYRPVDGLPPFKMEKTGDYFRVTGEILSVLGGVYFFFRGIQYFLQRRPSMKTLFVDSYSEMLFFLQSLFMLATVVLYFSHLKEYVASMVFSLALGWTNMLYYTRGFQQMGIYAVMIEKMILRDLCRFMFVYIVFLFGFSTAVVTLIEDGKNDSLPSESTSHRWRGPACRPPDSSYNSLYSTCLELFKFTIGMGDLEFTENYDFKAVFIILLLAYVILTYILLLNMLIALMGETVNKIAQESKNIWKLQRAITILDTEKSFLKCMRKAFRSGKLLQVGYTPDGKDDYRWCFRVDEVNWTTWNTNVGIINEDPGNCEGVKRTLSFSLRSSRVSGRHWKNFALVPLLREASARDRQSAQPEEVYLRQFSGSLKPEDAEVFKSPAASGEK
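Fluo-8 calcium influx in TRPV1-expressing cells, kinetic read (ex 480/em 520 nm). Compound added and read 3 min for agonist activity, followed by capsaicin at EC20 final and 2 min further read for enhancement.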
Sfp inh: inhibitors of Bacillus subtilis Sfp phosphopantetheinyl transferase | Q9F4F7 | Biochemical Sfp PPTase activity, qHTS | Potency, µM, without a hit: max response, negative = inhibition, actives largely listed as inhibitors | hit rate 3.5% among 310,000 | AID 1490; active = well fitted inhibition curve with a large enough effect; inconclusive = small, poorly fitted or top-dose-only effect, or another doubt; inactive = no such curve, though single readings can be large or run the other way;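 also: the enzyme is Sfp with the accession as filed and its product quenches rhodamine fluorescence; potency is read from the fitted curve at half-maximal effect; 0% = enzyme reaction without inhibitor and -100% = no enzyme wells; top concentration of the series not given in the record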
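After 15 min at room temperature with compound, 15 nM Sfp received 5 uM rhodamine-CoA plus 12.5 uM BHQ-2-ybbR (50 mM Hepes pH 7.6, 10 mM MgCl2). Rate came from the fluorescence difference over 30 min, ex 525/em 598 nm.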
gsp ag: gsp mutant agonism; gsp mutant cells, cAMP HTRF, 30 min; control for the full effect not named in the record; Potency, µM (doses to about 76.9 µM), for inactives: top-dose activation (cAMP increase), actives largely listed as activators; hit rate 0.13% among 340,000; AID 624287; active = well fitted activation curve with a large enough effect; inconclusive = small, poorly fitted or top-dose-only effect, or another doubt; inactive = no such curve, though single readings can be large or run the other way; cell line not stated here;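 also: phosphodiesterase inhibitor Ro 20-1724 added with compounds to block cAMP breakdown; potency is read from the fitted curve at half-maximal effect; nearly all actives have a fitted effect of over 60% in size; about a fifth of the inactives were tested at one dose only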
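Cells stably selected in G418 were plated at 2000/well, grown 16-24 hr, then given compounds in DMSO with the PDE inhibitor […] (300 uM solution added) for 30 min at 37C; cAMP was read by HTRF.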
An asterisk follows results filed as active; ? = inconclusive; / = no result given; & = joins results of further samples; [ ] = another dose, or the depositor's remark.

SMILES	ClpP mod	D2 potentiator	gsp antag	Menin-MLL FL inh	TRPV1 PAM	Sfp inh	gsp ag
Cc1ccc(C(=O)NCCNc2ncc(C(F)(F)F)cc2Cl)cc1[N+](=O)[O-]	/	-5.6	-2.9%	-0.2	-6.7	3.9%	11.6%
N#Cc1nc(-c2ccc(F)cc2)oc1N1CCCC1	3.5%	5.1	3.6%	2.4	/	-25.1%	0.5%
CC(C)c1ccc(Nc2nc(CC(=O)O)cs2)cc1	0.6%	1.4	11.9%	1.3	?	-6.5%	-7.6%
NC1=NC(=Nc2ccc(Cl)cc2)c2ccccc21	/	-9.7	0.4%	0.7	-2.0	-1.9%	-3.3%[15.4 µM]
O=C(NCC1CCCO1)C12CN(Cc3ccccc3)CC1C(c1cccc([N+](=O)[O-])c1)=NO2 (stereo not given)	-0.2%	-0.7	-6.4%	-0.3	-10.6	?	/
Cc1cc(C)c2c(N)c(-c3nc4ccccc4[nH]3)sc2n1	-15.9%	-14.8	2.0%	1.9	-23.3	1.8%	-0.4%
CCCC1=Nc2cc(C(=O)N3CCN(c4ccccn4)CC3)ccc2Sc2ccc(C)cc21	-2.1%	-5.4	-21.1%	0.8	1.1	0.4%	-9.3%
CN1/C(=C\C(=O)COC(=O)Cn2nnc(-c3ccccc3)n2)C(C)(C)c2ccccc21	?	-18.1	?	?	-11.6	-2.4%	-1.7%
COc1ccccc1N1CCN(/N=C/C=C\c2ccco2)CC1	-2.3%	-9.3	-9.7%	3.4	-4.6	79.4µM*	10.3%
CCOCCCNS(=O)(=O)c1ccccc1	1.1%	-6.8	6.9%	-0.9	-13.0	5.7%	1.0%
CCOC(=O)Nc1ccc2c(c1)N(C(=O)CCN1CCN(C)CC1)c1ccccc1S2	-1.0%	-33.8	1.7%	2.1	-9.3	-3.6%	-0.3%
Cc1ccc(-c2ccc(CN3C(C)C(=O)N(Cc4cn(CCC5OCCCO5)nn4)CCS3(=O)=O)cc2)cc1 (stereo not given)	0.1%	-6.1	/	/	/	/	-5.0%
Cc1ccc(S(=O)(=O)N2CCOCC2)cc1C(=O)OCC(=O)Nc1ccc2[nH]c(=O)[nH]c2c1	1.2%	-1.4	-17.2%	/	-3.3	/	-32.4%[15.4 µM]
S=c1[nH]nc(-c2ccc(Cl)cc2Cl)n1-c1ccccc1	2.6%	-30.1	-7.6%	0.0	-3.1	18.8%	1.3%
O=C(CN1C(=O)C2C3C=CC(C3)C2C1=O)NCCc1ccccc1Cl (stereo not given)	-2.0%	-10.5	7.1%	1.5	-0.4	5.4%	?
CCOC(=O)c1cnc(SCc2ccccc2)nc1N	1.5%	-3.9	2.3%	2.3	19.6	-13.1%	-31.0%
CC(/C=N/NC(=O)c1cc(C2CC2)[nH]n1)=C\c1ccccc1	-2.0%	-8.8	3.5%	2.4	9.1	16.5%	-1.7%
CC(Nc1nc2ccccc2n2cnnc12)c1ccccc1 (stereo not given)	/	-8.6	-11.6%	0.0	1.3	21.1%	0.8%[15.4 µM]
CCSc1nnc(CNC(=O)C23CC4CC(CC(C4)C2)C3)n1C1CCCCC1	-1.4%	3.0	-0.7%	3.2	5.1	-17.1%	-0.6%
O=C(Cn1cnc([N+](=O)[O-])c1)Nc1ccc(Cl)cc1Cl	-2.9%	-18.0	/	/	/	/	?
CC1(C(=O)Nc2cccc(C(F)(F)F)c2)CO1 (stereo not given)	/	/	/	-1.4	-8.4	15.3%	/
CSCCC(NC(=O)c1ccco1)C(=O)Nc1ccncc1 (stereo not given)	0.9%	-3.5	-0.9%	2.7	4.1	7.0%	?
Cc1cccc(Oc2nc(-c3ccncc3)nc3ccccc23)c1	/	-11.7	-5.0%	1.6	/	?	-1.5%[15.4 µM]
OCCN1CCN(c2ncnc3c2c(-c2ccccc2)cn3-c2ccc(F)cc2)CC1	-0.4%	-50.9	-9.8%	-0.9	1.2	-14.1%	-1.4%[15.4 µM]
COc1ccc(CCNC(=O)C(=O)NCC2OCCN2S(=O)(=O)c2cccs2)cc1OC (stereo not given)	-0.8%	2.8	8.3%	/	/	/	-8.2%[15.4 µM]
COc1ccc(NS(=O)(=O)c2ccc(NC(=O)c3ccc(N(C)S(C)(=O)=O)cc3)cc2)c(OC)c1	25.1µM*	-4.8	2.3%	2.9	-6.4	14.5%	-51.0%[inhibitor]
COc1ccc(-c2cc3ncccc3cn2)cc1	-16.6%	0.3	-4.1%	/	-0.1	/	/
FC(F)(F)c1ccc(N2CCN(c3cc(-c4ccccc4)nc4ncnn34)CC2)nc1	22.6%	-3.2	5.3%	10.5	11.1	1.2%	-16.7%
O=C(NCc1cccnc1)C(=O)C1C(=O)Nc2ccccc21 (stereo not given)	-3.6%	-9.5	5.3%	2.4	?	-0.2%	-36.6%[inhibitor]
O=S(=O)(c1cccc(C(F)(F)F)c1)N1CCN(C(=S)NCc2ccco2)CC1	-0.9%	-8.8	0.2%	1.7	-4.6	70.8µM*	-36.6%
Cc1cc(C)c2c(n1)sc1c(N3CCCCC3)ncnc12	/	-8.0	-12.8%	2.2	-0.8	-5.1%	19.9%[15.4 µM]
Nc1c(N(CCCO)C(=O)CCCN2C(=O)c3cccc4cccc(c34)C2=O)c(=O)[nH]c(=O)n1Cc1ccccc1	?	-14.6	-0.5%	/	/	/	13.3%
CCOc1ccccc1OCC(=O)OC(C)C(=O)Nc1ncc(Cl)cc1Cl (stereo not given)	0.9%	-2.1	7.2%	/	17.5	/	-0.2%
Cc1cc(C)cc(N2C(=O)CC(n3nc(C)cc3C)C2=O)c1 (stereo not given)	1.0%	2.2	11.2%	2.2	-4.0	11.8%	-7.6%
CCSc1sc(CC)cc1C=O	/	-11.2	13.5%	-5.1	3.9	17.9%	9.5%[15.4 µM]
CCOc1ccc(NC(=S)NC23CN4CN(CN(C4)C2)C3)cc1	/	6.5	8.9%	5.0	-14.5	3.3%	9.1%[15.4 µM]
CCOC(=O)c1oc2ccccc2c1CN1CCN(c2ccccc2)CC1	-1.8%	-32.8	-6.1%	5.4	-24.0	-18.5%	10.0%
CC(=O)Nc1nccc(-c2cc(-c3ccccc3)no2)n1	-14.2%	-4.2	4.8%	-0.1	4.5	-5.3%	?
COc1cccc(NC(=O)C2CCCN2S(=O)(=O)c2ccc3c(c2)C(C)(C)C(=O)N3C)c1 (stereo not given)	0.3%&-3.1%	7.9	-5.9%	-1.6	29.4	13.7%	10.0%
Cc1cc(C)c(C#N)c(SCC(=O)Nc2nnc(-c3ccccc3)s2)n1	-8.3%	-5.5	16.8%	1.2	5.2	0.9%	?
O=C(Nc1cccc(Cl)c1)c1cnc[nH]1	0.9%&-0.5%	-3.8	7.5%	-1.3	17.8	-1.1%	-14.3%
C=CCc1cc(Cl)ccc1OCCNCCOC	/	-23.1	14.3%	1.0	-9.3	-25.7%	9.9%[15.4 µM]
O=C(c1cnccn1)N(Cc1ccco1)C1(C(=O)NC2CCCC2)CCCCC1	3.7%	-19.3	11.8%	2.0	9.4	-7.5%	6.1%
O=C(C1CCC(=O)N1Cc1ccccc1Cl)N1CCN(c2ccc(F)cc2)CC1 (stereo not given)	-1.5%	9.8	-2.4%	2.6	0.0	10.8%	-48.7%[inhibitor]
COc1ccc2ccccc2c1/C=N\NC(=O)c1ccc(C)s1	-11.5%	-36.6	-15.4%	/	-1.9	-0.4%	13.7%
CCCCn1c(N)c(N(CCOC)C(=O)CSCc2ccccc2C)c(=O)[nH]c1=O	-2.9%	0.6	0.1%	/	4.9	/	16.4%[15.4 µM]
O=C(COc1cccc(F)c1)Nc1nc(-c2ccccn2)cs1	-0.9%	0.1	/	/	/	/	-75.5%[inhibitor]
c1ccc(CN(Cc2cccs2)C(c2cccs2)c2nnnn2C2CCCC2)cc1 (stereo not given)	-1.8%	3.9	-17.8%	2.6	-0.6	11.0%	-2.3%
O=C(COC(=O)CSc1ccc(F)cc1)NC1CC1	0.7%	-3.8	/	/	/	/	-104.6%[inhibitor]
Cc1ccc(Cn2ccc(=O)c(Cc3c(Cl)cccc3Cl)c2C)cc1	-1.2%	3.3	4.6%	5.3	9.0	12.4%	15.0%
CN(C)S(=O)(=O)c1cccc(COC(=O)c2ccc(Cl)cc2O)c1	-7.2%	0.0	?	3.2	-4.4	?	16.8%
CCOC(=O)CSc1nc2sc(C)c(C)c2c(=O)n1N	-8.4%	-13.2	3.6%	8.8	-0.3	1.4%	29.6%
O=C(Nc1ccc(Cl)cc1)N1CCc2[nH]c3ccccc3c2C1	-10.3%	-5.9	-8.3%	-0.2	-49.2	14.0%	-12.4%
CC(C)(C)OC(=O)N1CC(O)CC1C(=O)OCC(=O)c1ccccc1 (stereo not given)	-2.9%	-4.1	9.5%	4.7	-1.8	2.7%	8.9%
Cc1ccc(N2CC(C(=O)Nc3ccc4c(c3)OCCO4)CC2=O)cc1 (stereo not given)	-5.9%	-10.4	2.9%	2.1	-10.5	4.0%	16.4%
CCN(C(=O)c1ccc2c(Cl)c3c(nc2c1)CCC3)c1cccc(C)c1	/	/	/	0.0	-4.3	-25.0%	/
COc1ccc(CCNc2oc(COc3ccc(Br)cc3)nc2C#N)cc1OC	-1.1%	5.1	39.8µM*	0.0	5.8	3.6%	-24.8%
Cc1nc2c(C(=O)N3CCOCC3)cnn2c(C)c1Cc1cccc(Cl)c1	/	/	/	2.1	7.1	9.9%	/
COC1=CC(=Cc2c(N)n3nc(CC(=O)N4CCOCC4)sc3nc2=O)C=C(OC)C1=O	/	-4.3	-4.7%	?	?	-3.1%	-23.0%[15.4 µM]
COc1ccc(CC(=O)N2CC3(C)CC2CC(C)(C)C3)cc1OC (stereo not given)	-2.2%	-8.2	2.7%	2.0	-3.6	4.0%	0.0%
O=C(NC1CCCCC1)C(c1ccncc1)N(Cc1ccc(F)cc1)C(=O)c1ccccn1 (stereo not given)	-0.1%	-4.4	-2.4%	4.4	-3.3	6.0%	-42.3%[inhibitor]

Rows were taken by chance (roughly 5.1% active in at least one column).
